Screening results as filed in PubChem BioAssay.
AF4-AF9 inh – blocks AF4 peptide binding to human AF9. P42568. AlphaScreen, biotin-AF4 peptide binding to FLAG-AF9. inhibition, % at 10 µM. actives 0.47% (n = 350,000);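 active = every replicate reaching a set inhibition limit, whatever the replicate mean, cut at about 25% in these data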;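 also: 0% = plate neutral control median and 100% = total signal loss; the record names both 10 and 1 µM as test concentration; the first replicate is given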
Target sequence (P42568 whole entry, looked up): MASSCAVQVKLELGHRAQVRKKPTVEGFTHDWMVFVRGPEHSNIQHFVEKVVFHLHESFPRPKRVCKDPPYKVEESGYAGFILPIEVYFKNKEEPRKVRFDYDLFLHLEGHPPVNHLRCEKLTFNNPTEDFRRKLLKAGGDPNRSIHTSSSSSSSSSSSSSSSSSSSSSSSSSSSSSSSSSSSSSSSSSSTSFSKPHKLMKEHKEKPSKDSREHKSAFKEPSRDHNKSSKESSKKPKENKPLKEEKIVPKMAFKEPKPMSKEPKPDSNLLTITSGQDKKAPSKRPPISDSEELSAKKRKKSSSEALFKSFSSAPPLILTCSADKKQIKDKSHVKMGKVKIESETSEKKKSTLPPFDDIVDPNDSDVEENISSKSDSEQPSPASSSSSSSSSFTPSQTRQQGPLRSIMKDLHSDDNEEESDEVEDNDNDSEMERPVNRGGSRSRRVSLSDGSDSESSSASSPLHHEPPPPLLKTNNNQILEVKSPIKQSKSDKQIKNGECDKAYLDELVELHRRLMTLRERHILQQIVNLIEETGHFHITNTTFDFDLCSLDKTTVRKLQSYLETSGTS
Ecoli rRNA inh – inhibitors of bacterial rRNA selective over humanized ribosomes. actives 1.6% (n = 350,000). GFP signal change (wild-type ribosome), % (concentration not given with the values). E. coli WT GFP vs humanized-ribosome RFP mutants, fluorescence, 24 h; stronger effect = lower value; DMSO median 0, no signal -100;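 active = significant combined selectivity score with lowered wild-type GFP, culture density cut under 30%, mutant RFP and density less affected; inactive = any of these conditions unmet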; also: one replicate is shown; some compounds called inactive have numbers as strong as hits
Ecoli rRNA inh OD600 – recorded beside Ecoli rRNA inh, whose call it bears; OD600 change, %; measured here: OD600 growth;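 optical density of the mix in the first replicate; 0 = DMSO median and -100 = no signal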
Ecoli rRNA inh RFP – also measured in Ecoli rRNA inh; calls as there; RFP signal change, %; measured here: RFP humanized mutant strains;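 first replicate; 0 = DMSO median and -100 = no signal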
The depositor's hits bear a star; & = joins results of further samples.

SMILES	AF4-AF9 inh	Ecoli rRNA inh	Ecoli rRNA inh OD600	Ecoli rRNA inh RFP
Cc1noc(C)c1S(=O)(=O)Nc1ccc2c(c1)C(=O)N([C@H](C)CO)C[C@@H](C)[C@@H](CN(C)Cc1ccc(C(=O)O)cc1)OCCCC[C@H](C)O2	-10.2	-0.6	8.5	2.4
O=C(Nc1cccc(F)c1)N1CC(=O)N2[C@@H](CO)[C@@H](c3ccc(Br)cc3)[C@@H]2C1	-2.9	-5.2	6.4	1.3
C[C@@H]1CN([C@@H](C)CO)C(=O)c2cc(NS(=O)(=O)c3ccc(Cl)cc3)ccc2O[C@H]1CN(C)C(=O)Nc1ccc2c(c1)OCO2	1.1	-4.0	8.5	-2.4
CNC[C@@H]1Oc2ccc(NC(=O)Nc3ccc4c(c3)OCO4)cc2C(=O)N([C@@H](C)CO)C[C@@H]1C	1.2	1.6	-3.9	-1.9
Cc1ccc(S(=O)(=O)Nc2cccc3c2O[C@H](CN(C)S(=O)(=O)c2cn(C)cn2)[C@@H](C)CN([C@@H](C)CO)C3=O)cc1	-1.3	0.5	3.6	-0.5
O=C(C[C@H]1CC[C@H]2[C@@H](COC[C@@H](O)CN2C(=O)c2ccccc2)O1)NCc1ccc(-c2ccccc2)cc1	-0.7	7.9	-1.2	5.8
C[C@@H]1CCCCO[C@@H](CN(C)Cc2ccc(Cl)c(Cl)c2)[C@H](C)CN([C@@H](C)CO)C(=O)c2cc(NC(=O)Nc3ccccc3)ccc2O1	-1.3	0.6	2.1	2.0
CC(=O)N1CC(=O)N2[C@H](C1)[C@H](c1ccc(-c3ccc(C)cc3)cc1)[C@@H]2CO	-1.1	0.0	-0.7	-4.5
C[C@@H]1CN([C@@H](C)CO)S(=O)(=O)c2ccc(C#CCN(C)C)cc2O[C@H]1CN(C)Cc1cccnc1	-1.4	-5.3	-18.4	1.6
O=C(N[C@@H]1CC[C@@H](CC(=O)N2CCOCC2)O[C@@H]1CO)c1cccc(F)c1	-0.4	1.4	6.2	-2.7
O=C(C1CCC1)N1CC2(C1)[C@@H](c1ccccc1)[C@@H](CO)N2Cc1ccccc1F	3.3	-7.7	-16.6	11.9
CCCCC1Cc2[nH]c(=S)[nH]c(=O)c2C(c2ccc3ccccc3c2)O1 (configuration not stated)	-0.5	-0.6	-23.0	5.2
C[C@@H]1CN([C@H](C)CO)C(=O)c2c(c3ccccc3n2C)-c2ccccc2CO[C@H]1CN(C)Cc1ccccc1	5.1	1.6&-34.0	-29.5&-55.7	12.5&11.2
C[C@H](CO)N1C[C@H](C)[C@@H](CN(C)Cc2ccc(C(F)(F)F)cc2)Oc2ccc(NC(=O)Nc3ccc(F)cc3)cc2CC1=O	-0.7	3.1	1.2	3.2
COc1cccc(-c2ccc3c(c2)O[C@@H](CN(C)C(=O)C2CCCCC2)[C@H](C)CN([C@@H](C)CO)S3(=O)=O)c1	4.4	-2.8	-18.1	3.7
C[C@@H]1CN([C@@H](C)CO)C(=O)c2cccc(NS(=O)(=O)c3ccc(F)cc3)c2O[C@H]1CN(C)S(=O)(=O)c1cccs1	-0.5	-3.2	0.7	-3.0
COC(=O)[C@H]1[C@H](CO)[C@H]2Cn3c(ccc(-c4ccccc4F)c3=O)[C@H]2N1Cc1cccnc1	0.9	-0.6	-3.2	2.6
CO[C@H]1CC[C@H]2CCN(C)C(=O)[C@@H](C)[C@H](OC)CN(C)C(=O)c3cc(C#N)ccc3OC[C@@H]1O2	-6.2	1.8	10.8	-3.9
CCc1nc2c(OCC(=O)C(C)(C)C)cccn2c1N(C)C(=O)c1ccco1	0.9	13.7	12.7	1.0
O=C(C[C@@H]1C[C@H]2c3cc(NC(=O)NC4CCCC4)ccc3O[C@H]2[C@H](CO)O1)NCc1cccnc1	-2.9	2.4	3.1	-1.4
C[C@@H]1CN([C@@H](C)CO)C(=O)c2cccc(NS(=O)(=O)c3ccccc3)c2O[C@H]1CN(C)CC1CCCCC1	0.2	-0.3	-8.6	-1.4
CC(C)NC(=O)N(C)C[C@@H]1Oc2cc(-c3cncnc3)ccc2S(=O)(=O)N([C@@H](C)CO)C[C@@H]1C	-1.0	0.1	2.2	-3.0
CC(=O)OC(C(=O)Nc1nncs1)c1ccccc1 (configuration not stated)	-1.1	14.0	21.0	1.0
COc1ccc2c3c([nH]c2c1)[C@@H](CO)N(Cc1ccc2c(c1)OCO2)CC31CN(C(=O)Nc2c(C)noc2C)C1	-0.9	0.1	0.4	1.4
CCCNC(=O)N(C)C[C@@H]1Oc2ncc(C#CCC(C)C)cc2C(=O)N([C@@H](C)CO)C[C@@H]1C	-6.3	-1.6	-7.7	0.1
O=C(N[C@H]1CC[C@H](CCNC(=O)C2CCOCC2)O[C@H]1CO)c1ccccn1	-3.4	3.2	9.0	-1.1
C[C@H](CO)N1C[C@H](C)[C@H](CN(C)C(=O)C2CCCCC2)OCCCC[C@H](C)Oc2ccc(NS(=O)(=O)c3ccccc3)cc2C1=O	-0.6	-2.0	-0.9	1.5
N#C[C@@H]1[C@H](c2ccccc2C2=CCCC2)[C@@H](CO)N1C(=O)C1CCOCC1	-4.0	-1.1	7.8	2.8
C/C=C/c1cnc2c(c1)C(=O)N([C@H](C)CO)C[C@H](C)[C@H](CN(C)C(=O)Cc1cccnc1)O2	-2.8	6.3	10.3	2.2
CC(=O)Nc1ccc(-c2ccnc3c2CC(C)(C(=O)Nc2cccc(OC(F)(F)F)c2)O3)cc1 (configuration not stated)	3.3	-9.5	-23.6	24.0
O=C(NCc1ccc(F)cc1)[C@@H]1[C@@H](CO)[C@@H]2Cn3c(ccc(C4=CCCCC4)c3=O)[C@H]1N2	-24.8	2.5	2.0	0.8
C[C@@H]1CN([C@@H](C)CO)S(=O)(=O)c2ccc(-c3cccc(C#N)c3)cc2O[C@@H]1CN(C)Cc1ccccn1	1.4	-4.3	-14.8	0.1
CC(C)C#Cc1ccc([C@H]2[C@@H](CO)N3CCCCN(C(=O)c4ccc5c(c4)OCO5)C[C@H]23)cc1	11.2	-53.7	-71.5	-7.8
CCn1cc(/C=C(\NC(=O)c2ccc(OC)cc2)C(=O)NCCCn2ccnc2)c2ccccc21	6.6	-2.8	1.4	12.1
O=C(NC1CCCCC1)N[C@@H]1CC[C@H](CCNS(=O)(=O)c2ccccc2)O[C@H]1CO	1.2	0.4	-0.9	-4.1
CN1CCN(C(=O)c2cc3c(c(-c4cccc(-c5ccccc5F)c4)n2)[C@@H](CCO)N([S@](=O)C(C)(C)C)C3)CC1	-1.3	-4.5	9.3	0.6
CCCN1[C@H](CO)[C@H](c2ccc(C3=CCCCC3)cc2)[C@@H]1CNS(C)(=O)=O	3.9	-2.5	-0.7	-1.1
Cc1cc(C(=O)Nc2cccc3c2O[C@H](CN(C)C(=O)Nc2ccc(F)cc2)[C@H](C)CN([C@H](C)CO)C3=O)n(C)n1	2.5	-0.6	2.9	-3.5
COc1ccc(S(=O)(=O)N(C)C[C@@H]2Oc3ccc(NC(=O)CCN4CCOCC4)cc3C(=O)N([C@@H](C)CO)C[C@@H]2C)cc1	-3.2	4.6	5.8	0.2
C[C@@H]1CN([C@H](C)CO)S(=O)(=O)c2ccc(C3=CCCC3)cc2O[C@H]1CN(C)C(=O)CN(C)C	-2.1	5.3	10.3	0.8
CO[C@@H]1CN(C)C(=O)c2ccc(NS(C)(=O)=O)cc2OC[C@@H](C)N(Cc2nccs2)C[C@H]1C	-1.8	0.8	-0.3	-0.6
Cc1noc(C)c1S(=O)(=O)N(C)C[C@@H]1OCCCC[C@@H](C)Oc2ccc(NS(=O)(=O)c3ccccc3)cc2C(=O)N([C@@H](C)CO)C[C@@H]1C	0.5	1.1	6.1	-2.6
CC(C)NC(=O)N(C)C[C@@H]1OCCCC[C@@H](C)Oc2ccc(NC(=O)c3ccccc3)cc2C(=O)N([C@H](C)CO)C[C@H]1C	-3.4	-1.4	-8.7	0.7
O=C(C(=O)N1CCC(CNS(=O)(=O)c2cccc3ccccc23)CC1)c1cccs1	-1.5	-9.4	-10.4	6.2
Cc1noc(C)c1NC(=O)N[C@@H]1C=C[C@@H](CC(=O)Nc2ccc(-c3ccccc3)cc2)O[C@@H]1CO	-1.3	-3.8	0.5	-0.8
COc1cccc(CN2CC3(CN(S(C)(=O)=O)C3)c3c(n(C)c4cc(OC)ccc34)[C@@H]2CO)c1	2.3	-0.7	-18.8	2.5
C[C@H](CO)N1C[C@H](C)[C@H](CN(C)Cc2ccncc2)Oc2ccc(NC(=O)CCC(F)(F)F)cc2CC1=O	-1.6	1.0	-1.3	-1.2
O=S(=O)(c1cccs1)N1CCCc2nc(-c3ccccc3)ccc21	-1.8	-10.1	-23.2	-2.4
C[C@@H]1CCCCO[C@H](CN(C)CC2CCCCC2)[C@H](C)CN([C@H](C)CO)C(=O)c2cc(NS(=O)(=O)c3cn(C)cn3)ccc2O1	-5.7	1.6	3.0	-0.4
CNC[C@@H]1OCCCC[C@H](C)Oc2ccc(NS(=O)(=O)c3cccs3)cc2C(=O)N([C@@H](C)CO)C[C@H]1C	-5.5	5.2	-4.3	0.6
C[C@@H]1CCCCO[C@H](CN(C)C(=O)CCCN(C)C)[C@H](C)CN([C@H](C)CO)C(=O)c2cc(NC(=O)C3CCCCC3)ccc2O1	-2.7	2.8	1.7	0.9
COc1ccc2[nH]c3c(c2c1)CCN1C(=O)C(CC(=O)NCc2cccc(C(F)(F)F)c2)C[C@H](C(=O)N2CCOCC2)[C@@]31C (some centres not stated)	8.4	-4.5	-28.2	-0.7
CC1(C(=O)Nc2ccc3nc[nH]c3c2)CCN1C(=O)c1ccccc1CCc1ccccc1 (configuration not stated)	3.2	-55.2	-77.7	-20.2
Cc1ccc(S(=O)(=O)N2c3ccccc3OC(C(=O)OC(C)(C)C)(C(=O)OC(C)(C)C)C2CC(=O)c2ccccc2)cc1 (configuration not stated)	-0.7	6.7	18.6	0.9
CSCCC(C(=O)Nc1c(C)cccc1C)n1c(COc2ccc(C)cc2)nc2ccccc21 (configuration not stated)	2.6	7.5	-9.8	1.0
COC(=O)[C@H](CCSC)NC(=O)Cn1cc(C)c(=O)[nH]c1=O	0.1	17.9	17.2	-2.2
C[C@@H]1CN([C@H](C)CO)C(=O)c2cc(NS(=O)(=O)c3ccc(Cl)cc3)ccc2O[C@H]1CN(C)Cc1ccccc1	-2.5	-7.9	-15.6	-1.0
C[C@H](O)C#Cc1cnc2c(c1)C(=O)N([C@@H](C)CO)C[C@H](C)[C@@H](CN(C)Cc1cccc(C(=O)O)c1)O2	-5.6	-1.8	-2.7	0.0
Cc1ccc(S(=O)(=O)N(C)C[C@H]2Oc3ccc(NC(=O)CCC(F)(F)F)cc3CC(=O)N([C@@H](C)CO)C[C@H]2C)cc1	-1.0	-1.7	-4.8	1.9
C[C@H]1CCCCO[C@H](CN(C)C(=O)Nc2ccc3c(c2)OCO3)[C@@H](C)CN([C@@H](C)CO)C(=O)c2cc(NC(=O)Nc3cccc4ccccc34)ccc2O1	1.0	-0.5	4.2	-1.6

Arranged by SMILES length (largest number first): part of the list above.
SMILES	AF4-AF9 inh	Ecoli rRNA inh	Ecoli rRNA inh OD600	Ecoli rRNA inh RFP
C[C@H]1CCCCO[C@H](CN(C)C(=O)Nc2ccc3c(c2)OCO3)[C@@H](C)CN([C@@H](C)CO)C(=O)c2cc(NC(=O)Nc3cccc4ccccc34)ccc2O1	1.0	-0.5	4.2	-1.6
CC(C)NC(=O)N(C)C[C@@H]1OCCCC[C@@H](C)Oc2ccc(NC(=O)c3ccccc3)cc2C(=O)N([C@H](C)CO)C[C@H]1C	-3.4	-1.4	-8.7	0.7
Cc1ccc(S(=O)(=O)N(C)C[C@H]2Oc3ccc(NC(=O)CCC(F)(F)F)cc3CC(=O)N([C@@H](C)CO)C[C@H]2C)cc1	-1.0	-1.7	-4.8	1.9
C[C@H](CO)N1C[C@H](C)[C@H](CN(C)Cc2ccncc2)Oc2ccc(NC(=O)CCC(F)(F)F)cc2CC1=O	-1.6	1.0	-1.3	-1.2
Cc1noc(C)c1NC(=O)N[C@@H]1C=C[C@@H](CC(=O)Nc2ccc(-c3ccccc3)cc2)O[C@@H]1CO	-1.3	-3.8	0.5	-0.8
CO[C@@H]1CN(C)C(=O)c2ccc(NS(C)(=O)=O)cc2OC[C@@H](C)N(Cc2nccs2)C[C@H]1C	-1.8	0.8	-0.3	-0.6
CC1(C(=O)Nc2ccc3nc[nH]c3c2)CCN1C(=O)c1ccccc1CCc1ccccc1 (configuration not stated)	3.2	-55.2	-77.7	-20.2
O=C(C(=O)N1CCC(CNS(=O)(=O)c2cccc3ccccc23)CC1)c1cccs1	-1.5	-9.4	-10.4	6.2

Other records follow.
SMILES	AF4-AF9 inh	Ecoli rRNA inh	Ecoli rRNA inh OD600	Ecoli rRNA inh RFP
COc1ccccc1S(=O)(=O)N[C@@H]1C=C[C@@H](CC(=O)N2CCN(C)CC2)O[C@H]1CO	0.7	1.9	3.7	-2.0
CCCNC(=O)C1(C)CCCN(Cc2ccc3ccccc3c2)C1 (configuration not stated)	-4.4	-3.4	-3.3	10.0
C[C@H](CO)N1C[C@H](C)[C@@H](CN(C)Cc2ccc(C(=O)O)cc2)Oc2c(NS(C)(=O)=O)cccc2C1=O	-0.4	4.7	4.8	-1.6
C[C@H]1CCCCO[C@@H](CN(C)C(=O)CCC(F)(F)F)[C@@H](C)CN([C@@H](C)CO)C(=O)c2cc(N(C)C)ccc2O1	3.3	-2.1	3.3	-0.8
Cc1noc(C)c1S(=O)(=O)N(C)C[C@H]1OCCCC[C@@H](C)Oc2ccc(N(C)C)cc2C(=O)N([C@@H](C)CO)C[C@@H]1C	15.0	-0.4	3.3	0.5

This is a subset; the hit share may differ from the screen's.
